# MT1-MMP promoter: MT1-MMP gene expression reporter suppression – cell-based, luciferase reporter, luminescence (AID 618); MT1-MMP promoter luciferase reporter cells, luminescence; 0.62% of 87,000 active; calls from a first round at 10 µM; hits with a dose series show EC50 in µM;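 active means over half of the reporter light lost at 10 µM or EC50 under 50 µM; inactive means the rest and hits that failed the dose series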;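 further: actives suppress MT1-MMP promoter-driven transcription so potencies describe inhibitors; HT1080 fibrosarcoma cells; overnight exposure; toxic or luciferase-blocking compounds were not removed from the actives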
# Hsc70 ATP site: small molecules displacing fluorescent ligand from Hsc70 – biochemical, fluorescence polarization, primary screen (AID 568) | displacement, % at 20 µM, or IC50 in µM where a hit was titrated | Hsc70 fluorescence polarization, probe displacement; higher % means a stronger effect; strong numbers were not always called active | 83,000 tested, under 10 active;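 active means displacement above 50% without optical interference and an IC50 on retest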;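 further: ATPase domain with a fluorescein-tagged ATP probe; 0% = vehicle and 100% = excess ADP; read after one hour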
# WNV NS2B-NS3 inh: blocks West Nile virus NS2B-NS3 protease activity; P06935; WNV NS2B-NS3 protease, fluorogenic substrate Ex360/Em465; stronger effect = lower value; z-score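 (tested at a level between 10 and 100 µM)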; 0.18% of 65,000 active; AID 577;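 active means z-score at -3 or under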;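 further: score is relative to mean and spread of the compound wells of a plate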
# Target sequence (P06935 1371-1501 limits assumed): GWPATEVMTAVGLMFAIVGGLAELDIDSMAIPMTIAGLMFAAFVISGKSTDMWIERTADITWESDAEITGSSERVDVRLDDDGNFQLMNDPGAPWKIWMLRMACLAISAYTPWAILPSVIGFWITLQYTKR
# Target sequence (P06935 1502-1679 limits assumed): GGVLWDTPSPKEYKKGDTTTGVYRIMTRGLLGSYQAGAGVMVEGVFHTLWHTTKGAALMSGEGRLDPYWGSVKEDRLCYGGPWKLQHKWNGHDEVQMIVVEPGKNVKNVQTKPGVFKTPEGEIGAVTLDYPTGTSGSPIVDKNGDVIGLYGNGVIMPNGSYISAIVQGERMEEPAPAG
# * = called active by the depositor; i = inactive; nt = not tested or not shown; + = active, no number; & = joins results of further samples. A portion of the library. The share of hits here may be higher or lower than overall.
# Value order – MT1-MMP promoter | Hsc70 ATP site | WNV NS2B-NS3 inh
CCCc1nc2ccccc2c(=O)n1-c1ccccc1OC
    i | -6.4% | 0.49
O=c1c(C=NCCN2CCNCC2)c(O)n(C2CCCCC2)c(=O)n1C1CCCCC1
    i | -6.6% | 0.59
O=C(c1ccccc1F)c1cn(CC(=O)N2CCOCC2)c2ccccc12
    i | -1.5% | nt
Cc1cc(OCC(=O)O)c2c3c(c(=O)oc2c1)CCCC3
    i | 4.5% | -0.37
CCC(=NCCc1c[nH]c2ccccc12)c1c(O)n(C)c(=O)n(C)c1=O
    i | 3.1% | nt
Cc1cccc(-n2c(O)c(C=NCc3cccnc3)c(=O)[nH]c2=O)c1C
    i | 1.4% | -0.28
Cc1ccnc(-n2c(-c3ccco3)nc3ccccc3c2=O)c1
    i | -3.3% | 0.57
c1ccc(CCn2nnnc2CN2CCC(n3nnc4ccccc43)CC2)cc1
    i | -2.0% | -0.63
COc1ccc(Cn2c(N)c(C(=O)NCc3ccco3)c3nc4ccccc4nc32)cc1
    i | -30% | -0.75
O=C1c2ccccc2C(=O)N1Cc1nc2ccccc2c(=O)n1-c1ccc(Br)cn1
    i | 3.0% | -0.0022
C=CCN1C(=O)CSc2ccc(C(=O)N3CCC4(CC3)OCCO4)cc21
    i | -2.2% | -1.3
CC1(C)CC(=O)C(C=NCCN2CCN(C(=O)Cc3ccc(F)cc3)CC2)=C(O)C1
    i | -5.3% | 0.89
O=C(Cn1nc(Cc2cccnc2)c2ccccc2c1=O)N1CCC2(CC1)OCCO2
    i | -0.2% | -0.23
O=C(CN1CC(c2ccccc2)CC1=O)Nc1ccccc1 (stereo not given)
    i | 8.9% | 1.4
CCOc1ccc(CN(CCCl)CCCl)cc1C(=O)OC
    i | 3.2% | nt
CCOc1cc2[nH]c(=S)n(CCCC(=O)N3CCC4(CC3)OCCO4)c(=O)c2cc1OCC
    i | 1.3% | 0.3
O=c1[nH]c2c(c(=O)n1C1CCCCC1)CCC2
    i | -6.3% | 0.87
CCCNC(=O)c1c(N)n(CC2CCCO2)c2nc3ccccc3nc12 (stereo not given)
    i | 5.2% | 0.86
Cc1ccccc1C1=NCC(=O)N(CC(=O)NCc2ccco2)c2sc3c(c21)CCCC3
    i | -0.2% | -0.7
CCCC1=C(C(=O)OCC)C2(C(=O)Nc3ccccc32)C(C#N)=C(N)O1 (stereo not given)
    i | -5.3% | -0.52

# Whole records from above. Values in the order: MT1-MMP promoter, Hsc70 ATP site, WNV NS2B-NS3 inh
# `CC1(C)CC(=O)C(C=NCCN2CCN(C(=O)Cc3ccc(F)cc3)CC2)=C(O)C1` reads i, -5.3%, 0.89
# `O=c1[nH]c2c(c(=O)n1C1CCCCC1)CCC2` reads i, -6.3%, 0.87

# Remaining list, next part:
# Value order – MT1-MMP promoter | Hsc70 ATP site | WNV NS2B-NS3 inh
COc1cc(CN2CCN(C(=O)COc3ccccc3)CC2)cc(OC)c1OC
    i | 1.8% | 0.19
COc1ccc(CCn2c(O)c(C=NCCCO)c(=O)[nH]c2=O)cc1OC
    i | -7.6% | -0.26
CCOC(=O)C1=C(C)OC(N)=C(C(=O)OCC)[C@@]12C(=O)N(CC(N)=O)c1ccccc12
    i | -7.7% | -1.1
O=C1C2CCCN2C(c2ccncc2)N1c1ccc(Cl)c(Cl)c1 (stereo not given)
    i | -0.2% | -0.54
CCOC(=O)C1=C(N)Oc2cc(C)oc(=O)c2C12C(=O)N1c3c(cccc32)C(C)=CC1(C)C (stereo not given)
    i | 1.1% | -0.39
CCOC(=O)c1c(C)n(CCN2CCN(C)CC2)c2ccc(OC)cc12
    i | 1.8% | -0.52
O=C(NCC(c1cccnc1)N1CCN(c2ccccc2)CC1)Oc1ccccc1 (stereo not given)
    i | -4.6% | 0.22
O=C(CN1CCCC1=O)Nc1ccccc1
    i | -4.8% | nt
Cc1nc2ccccc2c(=O)n1-c1ccc(F)cc1
    i | 0.6% | -1
COc1ccccc1N1CCN(Cc2ccccc2F)CC1
    i | 2.7% | -0.05
CC12CCCCC1=NC(c1ccc(Br)cc1)N2O (stereo not given)
    i | 5.8% | 0.29
CC(C)CCn1c(N)c(C(=O)NCc2cccs2)c2nc3ccccc3nc21
    i | 0.8% | nt
S=C1CN=C(c2ccccc2)c2cc(Cl)ccc2N1
    i | 3.7% | nt
CCN(CC)CCCNC(=O)c1c(O)c2ccccc2n(Cc2ccccc2)c1=O
    i | -0.1% | -0.1
NCC(CC(=O)O)c1ccc(Cl)cc1 (stereo not given)
    i | 2.7%&1.0% | 0.7&-0.47
COc1ccc(OC)c(C2=NOC(C(=O)N3CCC4(CC3)OCCO4)C2)c1 (stereo not given)
    i | 3.9% | -0.18
CC(=O)N1CN2CN(C(C)=O)CC(C(=O)c3ccc(Br)cc3)(C2)C1
    i | -1.6% | 0.1
Fc1ccc2c(c1)nnn2C1CCN(Cc2c(Cl)cccc2Cl)CC1
    i | 1.7% | nt
COc1cc(/C=N/NC(=O)Cn2c([N+](=O)[O-])cnc2C)ccc1OC(=O)N(C)C
    i | 1.7% | nt
Cn1c(O)c(C(=O)c2ccccc2F)c(=O)n(C)c1=O
    i | 0.5% | nt

# Next part:
# Value order – MT1-MMP promoter | Hsc70 ATP site | WNV NS2B-NS3 inh
CC12CN3CC(C)(CN(C1)C3c1cccs1)C2O (stereo not given)
    i | 9.9% | -0.91
CCOC(=O)N1CCC(NC(=O)CCc2nc(C3=CCN(C)CC3)no2)CC1
    i | 2.9% | -0.79
COc1ccc(CCn2c(O)c(C=NCCN3CCCCC3)c(=O)[nH]c2=O)cc1OC
    i | -39% | nt
O=c1[nH]c(N2CCN(Cc3ccc4c(c3)OCO4)CC2)nc2c1CCC2
    i | 7.4% | -0.12
COc1ccc(CCNCc2ccccc2F)cc1OC
    i | -1.2% | nt
CCOC(=O)C1C(=O)N(C)C2(C)CC1c1cc(OC)ccc1O2 (stereo not given)
    i | 4.7% | -0.36
N#CC1=C(N)Oc2c(c(=O)oc3ccccc23)C1c1ccc(OC(=O)N2CCOCC2)cc1 (stereo not given)
    i | -5.0% | -1.9
CC(N=Cc1c(O)[nH]c(=O)[nH]c1=O)c1ccccc1 (stereo not given)
    i | 4.3% | -0.81
CCC(=NCCN1CCCCC1)c1c(O)n(C)c(=O)n(C)c1=O
    i | 5.3% | -1
CCCCCCn1c(O)c(C=NCCN2CCCCC2)c(=O)[nH]c1=O
    i | -0.8% | -0.18
Cc1nn(Cc2ccccc2Cl)c(Cl)c1C(=O)OCC(=O)NCc1ccco1
    i | 1.1% | 0.75
COCCOC(=O)c1c(N)n(Cc2ccco2)c2nc3ccccc3nc12
    i | 19% | 2.3
CN1CC=C2C(C#N)=C(N)C(C#N)(C#N)C(c3ccncc3)C2C1 (stereo not given)
    i | 21% | -0.93
O=C(C1CCCO1)N1CCC2(CC1)OCCO2 (stereo not given)
    i | -0.9% | -0.22
Cn1cc(C(=O)c2ccccc2)c2ccccc21
    i | -2.0% | -1.7
CN1C(=O)/C(=C/c2ccc(N3CCCCCC3)o2)C(=O)NC1=S
    i | -140% | nt
COc1ccccc1N=C1SCCCN1C
    i | -4.1% | -1.1
CCCCn1c(O)c(C(CC)=NCCN2CCCCC2)c(=O)[nH]c1=O
    i | 1.5% | -1.1
O=c1[nH]c(=O)n(Cc2ccco2)c(O)c1C=NCc1ccco1
    i | 1.3% | 0.69
COc1ccccc1CN1CCN(C(=O)COc2ccccc2)CC1
    i | -4.4% | 0.44

# Next section
# Value order – MT1-MMP promoter | Hsc70 ATP site | WNV NS2B-NS3 inh
CCOC(=O)C1=C(N)OC2=C(C(=O)CCC2)C12C(=O)N(CC(N)=O)c1ccccc12 (stereo not given)
    i | 6.4% | nt
COc1cccc(N2C(=O)NC(=O)C3(Cc4cc(C)ccc4N(C)C3)C2=O)c1 (stereo not given)
    i | 5.1% | -0.58
CN1C[C@H](CNC(=O)OCc2ccccc2)C[C@@H]2c3cccc4c3c(cn4C)C[C@H]21
    i | 19% | -0.46
Cc1nc2ncnn2c(C)c1CCC(=O)N1CCC2(CC1)OCCO2
    i | 0.5% | 0.83
COc1ccc2[nH]c(C)c(CCN3CCC(=O)C(C)C3C)c2c1 (stereo not given)
    i | -4.8% | 0.31
Cn1nc(-c2ccc(OCC(=O)N3CCN(Cc4ccccc4)CC3)cc2)c2ccccc2c1=O
    i | 5.0%&3.2% | 1.1&0.03
O=C1N(CN2CCOCC2)c2ccccc2C1(O)c1c[nH]c2ccccc12 (stereo not given)
    i | -5.6% | -1.6
Cc1ccc2c(c1)C1CN(C)CCC1N2C(=O)Cn1nnc(-c2ccccc2F)n1 (stereo not given)
    i | 7.8% | 0.88
CC(C(=O)c1c[nH]c2ccccc12)N1CCSCC1 (stereo not given)
    i | -1.3% | nt
CCC(C(=O)N1CCC2(CC1)OCCO2)c1ccccc1 (stereo not given)
    i | -3.0% | -0.63
CC(=O)C1=C(C)OC(N)=C(C(=O)OC(C)C)C12C(=O)Nc1ccccc12 (stereo not given)
    i | -0.3% | -0.81
[N-]=[N+]=CC(=O)OC[C@H](N)C(=O)O
    i | 0.1% | -1.3
CCOc1ccc(N=Cc2c(O)n(C(C)(C)C)c(=O)[nH]c2=O)cc1
    i | -6.2% | nt
CCCN(CC#CCO)CCC
    i | -2.0% | 0.63
Nc1ccccc1C(=O)OC1CSC1
    i | 3.2% | 0.92
O=C(C1CCC(=O)N1Cc1ccccc1Cl)N1CCC2(CC1)OCCO2 (stereo not given)
    i | 0.6% | nt
O=c1cccc2n1CC1CC2CN(Cc2cccc(Cl)c2Cl)C1 (stereo not given)
    i | 2.3% | 0.36
O=C(NC(c1ccc(Cl)cc1)P(=O)(Oc1ccccc1)Oc1ccccc1)OCc1ccccc1 (stereo not given)
    i | -4.1% | nt
CCC(=NCc1ccc2c(c1)OCO2)c1c(O)n(C2CCCCC2)c(=O)[nH]c1=O
    i | -22% | -1.2
Cc1c(/C=N/O)c2ccccc2n1C
    i | 3.0% | nt

# (cont.)
# Value order – MT1-MMP promoter | Hsc70 ATP site | WNV NS2B-NS3 inh
O=c1c2ccccc2[nH]c(=S)n1-c1ccc2c(c1)OCO2
    i | 2.0% | -0.63
CN(C)CCN=Cc1c(O)n(-c2cccc(C(F)(F)F)c2)c(=O)[nH]c1=O
    i | -0.1% | -2
O=P(Nc1c(Cl)cccc1Cl)(c1ccccc1)c1nc2c(s1)CCCC2 (stereo not given)
    i | -3.4% | nt
CP(=O)(O)CCCN
    i | 0.9% | -0.8
Cc1cc(N2C(=O)C3CCCN3C2c2cccc(Cl)c2)no1 (stereo not given)
    i | 0.9% | -0.16
CCC(C)NC(=O)c1c(N)n(CCCOC)c2nc3ccccc3nc12 (stereo not given)
    i | 2.3% | 1.1
CCCCc1nc(N2CCNCC2)c(C#N)c2c1CSC(C)(C)C2
    i | 6.6% | 0.31
CCCCn1c(O)c(C(C)=Nc2ccc(C(=O)O)cc2)c(=O)[nH]c1=O
    i | -3.8% | -0.66
CN1C(=O)N(C)C(=O)C2(Sc3ccccc3C2=O)C1=O
    i | -1.3% | 1.4
Cc1cc(Cl)ccc1OC(C)C(=O)O (stereo not given)
    i | -4.1% | -0.91
CC(Cc1ccccc1)[n+]1cc(/N=C(\[O-])N(C)C)on1 (stereo not given)
    i | -2.6% | 1.3
CCn1c(=O)cc(OCC(=O)N2CCC3(CC2)OCCO3)c2ccccc21
    i | 4.0% | -1.5
Clc1ccc2c(N3CCNCC3)ccnc2c1
    i | 1.1% | 0.77
CCCCCCn1c(=O)c(C(=O)Nc2c(C)n(C)n(-c3ccccc3)c2=O)c(O)c2ccccc21
    i | -5.2% | -0.51
COC(=O)C[C@]1(C(=O)OC)CN(C#N)N(c2ccc(Cl)cc2)C12c1ccccc1-c1ccccc12
    + | 2.0% | nt
Cc1nc2ccccc2c(=O)n1-n1cnnc1
    i | 6.3% | 0.75
O=C(c1ccccc1)c1cn(CC(=O)N2CCOCC2)c2ccccc12
    i | 7.3% | -0.88
Clc1cccc(N2CCNCC2)c1Cl
    i | -2.5% | nt
CCCCn1c(O)c(C(CC)=NCc2ccc3c(c2)OCO3)c(=O)[nH]c1=O
    i | -1.6% | -0.16
C=CCn1c(O)c(C=Nc2ccc(N(CC)CC)cc2)c(=O)[nH]c1=O
    i | 6.8% | 0.36

# Next section.
# Value order – MT1-MMP promoter | Hsc70 ATP site | WNV NS2B-NS3 inh
CCC(=NCCCO)c1c(O)n(-c2ccc(OC)cc2)c(=O)[nH]c1=O
    i | -2.1% | -0.4
CCOc1cc(C(=O)N2CCC3(CC2)OCCO3)cc(OCC)c1OCC
    i | -0.7% | -1.5
Cc1ccc(C2(O)CCN3CCCCC32)cc1 (stereo not given)
    i | -1.8% | -0.33
CN(C)CCCN=Cc1c(O)n(CCc2ccccc2)c(=O)[nH]c1=O
    i | -12% | nt
O=C(c1ccc2nc(-c3ccco3)c(-c3ccco3)nc2c1)N1CCC2(CC1)OCCO2
    i | 5.1% | -0.71
CC1(C)CN2C(c3ccc(Cl)cc3)N2C1 (stereo not given)
    i | 3.5% | nt
COc1cc2nc(CN3CC=C(c4ccccc4)CC3)[nH]c(=O)c2cc1OC
    i | -4.9% | -0.41
Cn1c(O)c(C(c2ccncc2)c2c(O)n(C)c(=S)n(C)c2=O)c(=O)n(C)c1=S
    i | -0.3% | nt
NCC(O)c1ccc(O)cc1 (stereo not given)
    i | 3.0% | -1.5
CCc1nc2ccccc2c(=O)n1-c1cccc(OC)c1
    i | 6.3% | 0.33
C[C@]12CCC(=O)C=C1CCC1C2CC[C@@]2(C)C1CC[C@@]2(O)CC#N (stereo not given in full)
    i | 3.7% | -0.87
